Cruzain noTriton – inhibitors of Trypanosoma cruzi cruzain without detergent; hit rate 2.3% among 200,000; AID 1476; Potency, µM, inactives show max response, negative = inhibition, actives largely listed as inhibitors; purified cruzain, Z-FR-AMC fluorescence, no detergent; active means well fitted curve in the direction sought with a large enough effect; inconclusive means small, poorly fitted or top-dose-only effect, or another doubt; inactive means no such curve, though single readings can be large; an effect the other way counts as inactive or inconclusive;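 further: plate controls were enzyme without inhibitor for no effect and buffer without enzyme for full effect; nearly all actives have a fitted effect of over 40% in size; top concentration of the series not given in the record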
Target sequence (P25779 123-467 limits assumed): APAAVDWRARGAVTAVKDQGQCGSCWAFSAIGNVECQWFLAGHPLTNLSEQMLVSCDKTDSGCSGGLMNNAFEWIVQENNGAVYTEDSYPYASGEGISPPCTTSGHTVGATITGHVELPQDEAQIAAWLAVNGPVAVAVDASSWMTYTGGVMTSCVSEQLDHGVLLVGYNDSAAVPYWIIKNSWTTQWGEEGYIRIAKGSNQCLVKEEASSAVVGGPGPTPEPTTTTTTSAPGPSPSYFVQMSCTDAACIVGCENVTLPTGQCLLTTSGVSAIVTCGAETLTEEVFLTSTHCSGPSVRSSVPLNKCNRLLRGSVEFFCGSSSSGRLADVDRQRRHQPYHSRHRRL
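Detergent-free condition (0.00005% Triton X-100) in acetate buffer pH 5.5 with DTT. 1.5 nM enzyme and compound were pre-mixed 15 min, then 2 uM Z-FR-AMC substrate added; reaction progress from fluorescence change between first and third reads (60 s).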
StopGo reporter – lowers the luciferase signal of an FMDV 2A StopGo reporter; Potency, µM (highest dose often 57.9 µM), for inactives: top-dose signal change, negative = less light; human cells with a luciferase reporter of 2A StopGo recoding; control for the full effect not named in the record; AID 1159524; hit rate 1.2% among 410,000; active = well fitted falling curve with a large enough effect; inconclusive = small, poorly fitted or top-dose-only effect; inactive = no such curve, though single readings can be large or run the other way; tested in HEK293T cells; further: on the % scale 0 is the no-effect control and ±100 the full control effect; nearly all actives have a fitted effect of over 45% in size; luciferase light after 4 h
NS1 inh – inhibitors of influenza NS1 protein function. S. cerevisiae slowed by influenza A NS1, growth recovery by OD600. Potency, µM (titrated, usually from 46.1 µM), for the others: at the top dose activity, positive = more growth. hit rate 0.4% among 270,000. AID 2326; further: actives are rising curves; nearly all actives have a fitted effect of over 50% in size
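Compounds were scored for reversing the slow growth caused by influenza A NS1 in S. cerevisiae, measured by optical density at 600 nm. Assay medium contained 2% galactose at pH 6.0; NS1-free yeast of the same strain were the positive control.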
RE007 growth inh – less growth of the S. pombe RE007 Vpr strain; S. pombe RE007 Vpr strain, BacTiter-Glo ATP luminescence, 24 h; control for the full effect not named in the record; Potency, µM (titrated, usually from 92.2 µM), inactives show at the highest dose activity change, negative = less growth; hit rate 0.21% among 360,000; AID 651644; active = well fitted falling curve with a large enough effect; inconclusive = small, poorly fitted or top-dose-only effect; inactive = no such curve, though single readings can be large or run the other way;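 further: on the % scale 0 is the no-effect control and ±100 the full control effect; nearly all actives have a fitted effect of over 50% in size; the assay follows cell death caused by Vpr and the record does not say whether a fall means rescue or toxicity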
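Fission yeast RE007 carrying one integrated HIV-1 vpr copy, seeded at OD 0.01 in PMG+AL medium with 23 nL pinned compound. Grown 24 h at 30 degrees; viability read by BacTiter-Glo luminescence after 5 min.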
Cruzain inh Det – cruzain (T. cruzi) inhibition with detergent; P25779; purified cruzain, Z-FR-AMC fluorescence, 0.01% Triton; Potency, µM, for inactives: max response, negative = inhibition, most hits filed as inhibitors; hit rate 0.43% among 200,000; active means well fitted curve in the direction sought with a large enough effect; inconclusive means small, poorly fitted or top-dose-only effect, or another doubt; inactive means no such curve, though single readings can be large; an effect the other way counts as inactive or inconclusive;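 further: plate controls were neutral wells for no effect and buffer without enzyme for full effect; nearly all actives have a fitted effect of over 40% in size; top concentration of the series not given in the record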
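Z-FR-AMC hydrolysis (2 uM substrate) by cruzain (1.5 nM) monitored kinetically at ex 360/em 450 nm after 15 min room-temperature compound exposure; 0.01% Triton X-100, pH 5.5, 5 mM DTT.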
Lassa entry inh – blocks Lassa virus binding to or entry into cells; Lassa virus pseudotype entry inhibition, cell reporter; control for the full effect not named in the record; Potency, µM (doses to about 37.9 µM), for the others: at the top dose activity change, negative = inhibition, actives largely listed as inhibitors; hit rate 1.2% among 300,000; AID 540256; active means well fitted inhibition curve with a large enough effect; inconclusive means small, poorly fitted or top-dose-only effect, or effect the other way; inactive means flat fitted curve, though single readings scatter; tested in HEK293 cells; further: on the % scale 0 is the no-effect control and ±100 the full control effect; nearly all actives have a fitted effect of over 50% in size; luciferase read-out
Marburg entry inh – inhibitors of Marburg virus binding or cell entry; Marburg virus pseudotyped entry inhibition, cell reporter; control for the full effect not named in the record; about a third of the inactives were read at about 46 µM; hit rate 1.8% among 300,000; Potency, µM (doses to about 37.8 µM), inactives show at the top dose activity change, negative = inhibition, most hits filed as inhibitors; active = well fitted inhibition curve with a large enough effect; inconclusive = small, poorly fitted or top-dose-only effect, or effect the other way; inactive = flat fitted curve, though single readings scatter; tested in HEK293 cells; about a fifth of its hits are not listed in these tables; further: on the % scale 0 is the no-effect control and ±100 the full control effect; luciferase read-out
SARS PLP yeast – inhibitors of SARS-CoV papain-like protease in yeast; S. cerevisiae expressing SARS-CoV PLpro, growth rescue; control for the full effect not named in the record; Potency, µM (doses to about 32.9 µM), for inactives: top-dose activity, positive = growth rescue; hit rate 0.19% among 330,000; further: 0% is about no effect; nearly all actives have a fitted effect of over 55% in size; growth read by luminescence after 48 h
Active calls of the source: *; ? = inconclusive; . = not tested or not shown; & = joins results of further samples; [ ] = remark or other dose. Unless noted, the call rests on the fitted dose curve; in most records, active means well fitted rising curve with a large enough effect; inconclusive means small, poorly fitted or top-dose-only effect; inactive means no such curve, though single readings can be large or run the other way. Potency means the concentration at half of the fitted maximal effect.

item	canonical_smiles	Cruzain noTriton	StopGo reporter	NS1 inh	RE007 growth inh	Cruzain inh Det	Lassa entry inh	Marburg entry inh	SARS PLP yeast
1	O=C(COC(=O)c1ccc(S(=O)(=O)NCc2ccco2)cc1)Nc1ccccc1	.	-11%	.	4%	.	-1%	?	1%
2	Cc1nc(=O)c(-c2ccccc2)c(C)n1-c1cccc(C(=O)O)c1	-7%	11%	5%	-6%	0.9%	16%	17%	5%
3	COc1cc(NC(=O)CN(C)Cc2ccc(OC(F)F)cc2)c(C)cc1[N+](=O)[O-]	13%	-2%	1%	-5%	-10%	-21%	-9%	23%
4	O=C(C(=O)N1CCc2ccccc2C1)c1cn(CC(=O)N2CCCCC2)c2ccccc12	9%	8%	6%	2%	-4.1%	?	?	?
5	CC(=O)N1CCN(S(=O)(=O)c2ccc(S(=O)(=O)NCC(C)C)cc2)CC1	11%	26%	2%	11%	6.8%	-14%	10%	1%
6	Cc1ccc(NC(=O)c2oc3ccccc3c2NC(=O)c2ccc(F)c(F)c2)cc1	?	-21%	.	.	-4.3%	9%[46.1 µM]	4%[46.1 µM]	.
7	COC(=O)c1cc(CSC(=N)N)ccc1OCCC(C)C	.	-15%	2%	-13%	.	?	?	0%
8	COc1ccccc1OCCCn1c(=O)oc2ccc(C)cc21	-4%	6%	-46%	-2%	1.3%	13%	-2%	-1%
9	CC1CCCN(C(=O)COC(=O)c2cc(-c3cccs3)nn2-c2ccccc2)C1 (stereo not given)	.	0%	.	5%	.	-15%	19%	2%
10	O=C(CCNC(=O)c1ccccc1)OCC(=O)c1ccccc1	.	-3%	.	3%	.	2%[46.1 µM]	14%[46.1 µM]	-1%
11	COc1cc(NC(=O)CSc2nnc3c(C)cc4cc(C)cc(C)c4n23)c(C(=O)O)cc1OC	.	-17%	0%	2%	.	7%	12%[46.1 µM]	1%
12	COc1cc2nc(C3CCC3)n(N)c(=O)c2cc1OC	.	4%	-3%	0%	.	.	.	-9%

Two entries drawn at random from the list so far:
item	canonical_smiles	Cruzain noTriton	StopGo reporter	NS1 inh	RE007 growth inh	Cruzain inh Det	Lassa entry inh	Marburg entry inh	SARS PLP yeast
7	COC(=O)c1cc(CSC(=N)N)ccc1OCCC(C)C	.	-15%	2%	-13%	.	?	?	0%
11	COc1cc(NC(=O)CSc2nnc3c(C)cc4cc(C)cc(C)c4n23)c(C(=O)O)cc1OC	.	-17%	0%	2%	.	7%	12%[46.1 µM]	1%

Continued.
item	canonical_smiles	Cruzain noTriton	StopGo reporter	NS1 inh	RE007 growth inh	Cruzain inh Det	Lassa entry inh	Marburg entry inh	SARS PLP yeast
13	CCOc1nc2cnccc2n(CC(=O)Nc2c(F)c(F)cc(F)c2F)c1=O	.	-10%	2%	-11%	.	.	.	-2%
14	CC(=O)N[C@H]1[C@H](OC2CCCCC2)O[C@H](COC(C)=O)[C@@H](OC(C)=O)[C@@H]1OC(C)=O	.	-11%	4%	-1%	.	.	.	-1%
15	COc1ccc2nc(NS(=O)(=O)c3ccc(C)cc3)c(Nc3cc(Cl)ccc3OC)nc2c1	-24%	?	.	.	-2.7%	14%[46.1 µM]	22%[46.1 µM]	.
16	COc1cccc(OC)c1OCCCOc1ccc([N+](=O)[O-])cc1Cl	-2%	?	-11%	5%	-7.7%	9%	?	-29%
17	COc1cc(S(=O)(=O)Nc2cccc3cn[nH]c23)c(OC)cc1Cl	.	15%	13%	10%	.	.	.	2%
18	Cn1c(=O)[nH]c(Nc2ccc(F)cc2)c([N+](=O)[O-])c1=O	-9%	-9%	8%	20%	-6.6%	17%	23%	5%
19	CCOC(=O)CN1C(=O)/C(=C/c2ccccc2Br)Oc2ccccc21	.	-15%	4%	-6%	.	23%[46.1 µM]	4%[46.1 µM]	1%
20	COc1cc(C(=O)OCC(=O)NC(C)CCc2ccccc2)cc(OC)c1OC (stereo not given)	.	-8%	-4%	10%	.	?	3%[46.1 µM]	10%
21	COCc1ccc(CN2CCCC(C(=O)Nc3ccc(-c4cccc(OC)c4)cc3)C2)o1 (stereo not given)	.	-16%	-15%	2%	.	.	.	?
22	O=C(O)/C=C\C(=O)Nc1ccccc1N1CCN(c2ccccc2)CC1	.	14%	17%	-1%	.	.	.	1%
23	CCc1ccc(/C=N/n2c(C)cc(C)c(C#N)c2=O)cc1	-9%	9%	?	.	-2.8%	6%	4%	16%
24	Cc1cc(C)cc(OCC(=O)OCC(=O)NC2CCCCCCC2)c1	.	-2%	.	0%	.	5%[46.1 µM]	0%	-2%

Some of the entries above, set out differently:
12) COc1cc2nc(C3CCC3)n(N)c(=O)c2cc1OC
10) O=C(CCNC(=O)c1ccccc1)OCC(=O)c1ccccc1
assay / entry | 12 | 10
Cruzain noTriton | . | .
StopGo reporter | 4% | -3%
NS1 inh | -3% | .
RE007 growth inh | 0% | 3%
Cruzain inh Det | . | .
Lassa entry inh | . | 2%[46.1 µM]
Marburg entry inh | . | 14%[46.1 µM]
SARS PLP yeast | -9% | -1%

(list continues)
item	canonical_smiles	Cruzain noTriton	StopGo reporter	NS1 inh	RE007 growth inh	Cruzain inh Det	Lassa entry inh	Marburg entry inh	SARS PLP yeast
25	O=C(O)CSC(=S)N1CCCCC1	-1%	-19%	2%	8%	2.5%	-4%	?	-1%
26	CC1=C(C(=O)OC2CCCCCCC2)C(c2cc3c(cc2Br)OCO3)CC(=O)N1 (stereo not given)	-22%	-29%	?	-1%	-4.3%	?	-54%	-14%
27	O=C(CC1C(=O)NCCN1Cc1c(F)cccc1Cl)NCCCN1CCCC1=O (stereo not given)	.	-15%	4%	4%	.	-1%	2%	2%
28	O=C(O)C1C2CCC(C2)C1C(=O)Nc1cc(F)ccc1F (stereo not given)	-13%	-17%	-1%	5%	4.7%	-7%	10%	1%
29	COc1ccc(NC(=O)CSc2nnc(Cc3cccn3C)n2-c2ccc(F)cc2)cc1OC	?	-11%	?	-7%	-2.4%	.	.	-6%
30	COc1ccc(-n2c(=O)cc(N3CCOCC3)[nH]c2=O)cc1	6%	4%	-3%	0%	3.3%	29%[14.3 µM]	16%	9%
31	O=C(c1ccc2c(=O)n3c(nc2c1)CCCCC3)N1CCN(c2ccc([N+](=O)[O-])cc2)CC1	.	-10%	19%	9%	.	.	.	-12%
32	COc1ccc(OCc2cc(C(=O)N3CCC(c4ccccc4)CC3)no2)c(Cl)c1	.	43%[activator]	-5%	5%	.	-1%	.	4%
33	CCCc1nn2c(=O)c(C(c3cccc(Cl)c3)c3c(O)nc4sc(CCC)nn4c3=O)c(O)nc2s1	9%	-15%	15%	-1%	-15%	3%	4%	0%
34	Cc1ccc2nc(CCc3nc4ccc(C)cc4o3)oc2c1	0%	-17%	-5%	-28%	-2.8%	-10%	-4%	5%
35	COC(=O)CCCCCCCC(=O)Nc1nnc(C(F)(F)F)s1	.	-22%	-8%	2%	.	28%	?	0%
36	COc1ccc(/C(C)=N/OCC(=O)Nc2nc3ccccc3s2)cc1OC	26%	-20%	16%	-25%	-12%	?	?	-13%

item	canonical_smiles	Cruzain noTriton	StopGo reporter	NS1 inh	RE007 growth inh	Cruzain inh Det	Lassa entry inh	Marburg entry inh	SARS PLP yeast
37	Cc1cn2c(=O)cc(COc3cccc(NC(=O)c4ccccc4Cl)c3)nc2s1	22%	-24%	.	.	-0.4%	6%[46.1 µM]	-1%[46.1 µM]	.
38	COc1ccc(Nc2ncc3c(n2)CCN(Cc2ccc(Br)s2)C3)c(OC)c1	-6%	18%	.	.	2.0%	-2%[46.1 µM]	.	.
39	CSc1nc2ccc(NC(=O)c3ccc(F)c(F)c3)cc2s1	.	8%	.	14%	.	-7%[46.1 µM]	?	-1%
40	CCOc1ccc(N2C(=O)NC(Cc3c[nH]c4ccccc34)C2=O)cc1 (stereo not given)	9%	-2%	-4%	-15%	-1.3%	-13%	9%	-5%
41	O=C1N=C(N2CCN(Cc3ccccc3)CC2)S/C1=C/c1cccs1	.	26%	1%	4%	.	-12%	2%[14.2 µM]	-1%
42	Cc1cc(N)n(-c2ccc(S(=O)(=O)c3ccc(C(C)C)cc3)cc2)n1	.	6%	.	-15%	.	0%[46.1 µM]	1%[46.1 µM]	-1%
43	Cc1cc(-c2nc(C)c(-c3nnc(SCC(=O)Nc4ccccc4)n3C)s2)no1	.	8%	1%	-4%	.	2%	3%	2%
44	Cc1ccc(OCC(=O)N2CCN(Cc3cccnc3)CC2)cc1	.	-5%	.	9%	.	11%[46.1 µM]	0%[46.1 µM]	1%
45	O=C(NC1C2CC3CC(C2)CC1C3)c1ccc(N2CCNCC2)c([N+](=O)[O-])c1 (stereo not given)	.	-17%	-1%	7%	.	8%	-25%[46.1 µM]	1%
46	Cc1ccc(C(=O)CNc2ccc(C)c(Cl)c2)cc1	?	35%[activator]	-26%	-13%	-1.1%	-2%	-1%	?
47	Cc1ccc(C(=O)Nc2ccccc2C(=O)O)cc1S(=O)(=O)NCc1ccccc1	.	58%[activator]	?	3%	.	.	.	0%
48	O=C(COC(=O)CN1C(=O)COc2ccccc21)NCc1ccc(F)cc1	.	-22%	.	-3%	.	-20%	?	1%

item	canonical_smiles	Cruzain noTriton	StopGo reporter	NS1 inh	RE007 growth inh	Cruzain inh Det	Lassa entry inh	Marburg entry inh	SARS PLP yeast
49	CCOc1ccc(CNC(=O)CCC(=O)N2Cc3ccccc3Oc3ncccc32)cc1	10%	-6%&-13%	-3%	-6%	-2.6%	21%&1%[46.1 µM]	-6%&-6%[46.1 µM]	-1%
50	COCCCN(Cc1cccs1)S(=O)(=O)c1csc(C(N)=O)c1	.	23%	8%	0%	.	.	.	-1%
51	CN(C)CCNC(=O)C(=O)NCC1CCCN1S(=O)(=O)c1cccs1 (stereo not given)	.	-5%	.	8%	.	25%	18%	0%
52	CCOC(=O)c1cccc(NC(=O)Cn2c(=O)c3cccn3c3ccccc32)c1	-15%	-5%	.	.	2.1%	?	.	.
53	Cc1cc(=O)oc2cc(OCC(=O)Nc3c(C(C)C)cccc3C(C)C)ccc12	-5%	-11%	.	.	-5.8%	-5%[46.1 µM]	.	.
